From PubChem BioAssay
ugtP null kill: growth inhibition of ugtP-null S. aureus, primary screen, RN4220 ugtP deletion, OD600; 16 h; some inactives read as strong as hits; growth inhibition, % (test concentration not listed); actives 0.54% (n = 330,000); AID 1259309, 2017;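 active = z-score under -3 and OD600 up to 0.15 on both plates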;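 note: plate controls were untreated wells for no effect and antibiotic for full effect; wells of about 80 µL received 100 nL stock; the first replicate is given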
Autofluor counter: compound fluorescence in toxin protease inhibitor counterscreen | fluorescence intensity (test concentration not listed) | AID 624483 | compound autofluorescence counterscreen, microsphere flow cytometry; stronger effect = higher value | actives 3.1% (n = 360,000);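 active = at least 3 SD above the mean of all compounds, about 16000 in these data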;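 note: 100 nL of 1 mM stock went into each well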
Sa RN4220 lethal: growth inhibition of S. aureus RN4220, primary screen, OD600; actives 0.33% (n = 330,000); 16 h; inhibition, % (test concentration not listed);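 active = z-score of -3 or lower and OD600 up to 0.18 on both plates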;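 note: plate controls were untreated cells for no effect and reference antibiotic for full effect; stock transfer was 100 nL into about 80 µL; one replicate is shown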
PrP 5UTR inh: inhibition of PrP 5' UTR reporter expression; actives 0.35% (n = 340,000); inhibition, % (concentration not given with the values); AID 488862, 2010; cell-based PrP 5' UTR mRNA reporter, plate reader;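 active = every replicate at 50% or more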;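 note: 0 = median of the neutral control wells; tested in H4 reporter cells; numbers are from one replicate; inactives centre near -14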
Mtb hypoxia inh: PubChem AID 1159583. M. tuberculosis hypoxia-regulated fluorescent reporter, fluorescence. fluorescence inhibition, % (no concentration beside the values). actives 0.1% (n = 300,000);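 active = 35 to 45% if threefold the growth effect, above 45% if 1.5-fold the growth effect; inactive = the rest, general growth blockers included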;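 note: wells of about 50 µL received 100 nL stock; 0% = vehicle wells and 100% = reference inhibitor wells; whole bacteria with a GFP reporter of the hypoxia response; strong numbers were not always called active; many hits fall short of the cut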
BJeLR lethal: MLPCN primary cell-based screen for lethality selective to Ras in HRASV12 cells; BJeLR (HRASV12) viability, CellTiter-Glo ATP luminescence, 48 h; reference of the scale not given here; inhibition, % (test concentration not listed); actives 0.17% (n = 300,000);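 active = replicate mean above 50%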;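 note: 50 nL library stock added to about 25 µL; numbers are from one replicate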
Mtb hypoxia inh growth: second read-out of Mtb hypoxia inh, no call of its own (marks repeat the call); growth inhibition, %; measured here: M. tuberculosis growth (absorbance);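 0% = vehicle and 100% = reference antibiotic; read after six days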
An asterisk follows results filed as active; . = no result given. Outcome played no part in choosing rows. About 4.1% of those tested had a hit in this group.

SMILES	ugtP null kill	Autofluor counter	Sa RN4220 lethal	PrP 5UTR inh	Mtb hypoxia inh	Mtb hypoxia inh growth	BJeLR lethal
Cc1cc(C(=O)N/N=C/c2ccc(-c3cccc([N+](=O)[O-])c3)o2)n[nH]1	.	6469	.	-4	.	.	-4
COc1ccc2oc3cc(C)[n+]([O-])c(-c4ccc(C)cc4)c3c2c1	18	7208	-5.7	8	-5	-1	-5
N#CC(C#N)=NNc1ccc([N+](=O)[O-])cc1	22	5308	49	-21	.	.	-7
CCc1ccc(OCCCCCn2ccnc2)cc1	21	3045	1.4	-29	.	.	19
CN(CCC1CCCCO1)C(=O)CCc1nnc(CCc2ccccc2)o1 (stereo unspecified)	8	4599	4.0	-41	11	5	-6
O=C(CSC1c2ccccc2C(=O)N1c1ccccc1)N1CCOCC1 (stereo unspecified)	3	7784	5.5	.	5	3	2
Cc1ccccc1NC(=O)c1ccc2nccnc2c1	-1	3738	-1.8	-11	6	6	-13
CCOC(=O)CSc1nc(C)nc2c1sc1nc(C)c(C(C)=O)c(-c3ccc(OC)cc3)c12	1	2032	-3.4	5	4	-1	8
CCn1cc(C(=O)OCC(=O)Nc2cccc(C)c2)c(=O)c2ccc(C)nc21	3	3891	3.1	-18	6	0	-1
CCCCN(C)C(=O)CCC(=O)Nc1ccc2nc(N3CCOCC3)cc(C)c2c1	2	4173	0.5	-37	3	0	0
CC(C)[C@H](NC(=O)NCc1cccs1)C(=O)O	.	2931	.	3	.	.	5
O=C(COc1ccccc1O)c1cccs1	7	3094	7.9	-17	15	8	6
COc1ccc(CCC(=O)N2CCN(c3ccc(OC)cc3)CC2)cc1	6	5525	-1.0	-8	6	-1	-7
O=C(NN=Cc1cc([N+](=O)[O-])ccc1Cl)c1cnccn1	2	.	1.6	.	10	12	.
O=C(NC1CCCCCCC1)C1=COCCO1	3	3258	16	-25	.	.	0
COc1ccc(OC(=NS(=O)(=O)c2ccccc2)c2ccccc2)cc1	0	.	0.9	.	-6	-4	.
O=C(c1ccccc1O)N1N=C(c2ccccc2)CC1(O)C(F)(F)F (stereo unspecified)	-2	2748	7.3	-15	-3	9	2
C[C@]12C=C[C@H](O)CC1=CCC1C2CC[C@@]2(C)C1CCC21OCCO1 (stereo partly specified)	37	3685	8.1	-24	9	4	.
COc1ccccc1CNc1ncnc2cc(Cl)ccc12	-12	4415	-1.9	-23	0	2	-14
Cn1c(N)c(C(=O)COC(=O)/C=C/c2cccc(F)c2)c(=O)n(C)c1=O	-6	3482	3.6	-12	2	1	.
CCOc1ccc(CCNC(=O)c2ccc3c(=O)[nH]c4c(C(=O)NC(C)C)sc(=S)n4c3c2)cc1	58	4052	52	-5	.	.	-3
CNC(=S)NN=Cc1cn(Cc2ccc(F)cc2)c2ccccc12	-17	.	-0.4	.	10	4	.
Cc1cc2c(ncn2C)c(NS(=O)(=O)c2ccc(Cl)cc2)c1C	0	2901	12	-19	-11	0	4
Cc1ccccc1NS(=O)(=O)c1ccc(C(=O)N2CCN(c3ccccn3)CC2)cc1	-2	4908	3.1	-4	-6	2	-3
CN(C)CCCN(C(=O)COc1ccccc1)c1nc2ccc(F)cc2s1	-2	4427	0.1	-10	13	3	-6
NNC(=O)C1CC1c1ccccc1 (stereo unspecified)	-3	2054	2.3	-39	2	-3	-5
CCOC(=O)c1sc(NC(=O)C(CC)Sc2nc3ccccc3[nH]2)nc1C (stereo unspecified)	-13	3462	2.1	-16	7	0	-7
Fc1ccc(-c2nnn(Cc3ccccc3Cl)n2)cc1	9	3636	-6.1	-21	11	15	-3
Cc1ccc(C(=O)O)cc1-c1ccc(C=C2C(=O)c3ccccc3C2=O)o1	.	3706	.	-10	.	.	-7
CNC(=O)/C(=C\c1ccc([N+](=O)[O-])cc1)NC(C)=O	0	2702	3.3	-10	.	.	-2
CCOC(=O)/C=C1\CC(C(=O)OCC)Oc2ccccc21 (stereo unspecified)	6	2881	1.4	-23	1	-1	.
Cc1ccc2c(c1)N(CCC(=O)NCCN1CCOCC1)C(=O)CO2	-1	20041*	1.2	-8	5	9	-2
Cc1ccc(S(=O)(=O)N2CCC(=O)N(C(COCc3ccc(Cl)cc3)C(C)C)CC2)cc1 (stereo unspecified)	-16	4041	-8.0	-12	10	3	0
CC(Cc1ccccc1)NC(=O)c1ccc(N)cc1 (stereo unspecified)	12	3812	7.4	-35	2	0	-3
CC(=O)c1cccc(NC(=O)C(C)OC(=O)CN2C(=O)NC(C)(C)C2=O)c1 (stereo unspecified)	-1	6390	0.1	-6	-7	-6	.
O=C1NC(=Nc2ccccc2)SC1(CO)CO	9	.	2.4	-13	10	-11	1
O=C(CSc1nnc(CNC(=O)c2c(F)cccc2Cl)o1)NCc1ccc(F)cc1	-4	5693	-3.6	-7	2	8	-2
COc1ccc(-c2cc(C(F)(F)F)n3nc(C(=O)N4CCCCC4)cc3n2)cc1OC	2	3082	12	16	3	10	12
CC(=O)Nc1ccc(/C=C/C(=O)c2ccc3c(c2)OCCO3)cc1	0	6317	-0.9	-12	-6	3	-1
Cn1c2ccccc2c2nnc(SC3CCOC3=O)nc21 (stereo unspecified)	4	23365*	4.8	-10	-1	3	1
CC(C)(O)C#Cc1ccc(CN2CCN(C3CCCC3)C(CCO)C2)cc1 (stereo unspecified)	2	4188	1.4	-14	9	-4	-2
CC(=O)Nc1ccc(NC(=O)CSc2nnc3ccc(-c4ccccn4)nn23)cc1	15	4640	4.1	-29	3	-5	3
Cc1ccsc1CNn1cnnc1SCc1ccccc1F	12	7882	6.7	-12	-5	6	10
CCOC(=O)C1CCCN(S(=O)(=O)c2cccc3nsnc23)C1 (stereo unspecified)	0	5104	0.7	-8	11	10	13
O=C(COc1ccccc1)N/N=C/c1ccc(O[C@@H]2O[C@H](CO)[C@@H](O)[C@H](O)[C@H]2O)cc1	.	2492	.	-6	.	.	-19
Cc1cccc(NC(=O)CSc2nnnn2C)n1	4	3661	0.9	-28	.	.	2
CC[C@@H]1C/C=C\Cc2ccccc2[C@@H](C(=O)C[C@@H](O)CC(C)=O)OC1=O	4	3757	2.0	-25	-6	4	.
O=C(NCc1ccccc1)c1ccc(S(=O)(=O)NCc2ccco2)cc1	-2	3552	0.5	-23	5	7	-3
N#Cc1ccc(NC(=O)COC(=O)c2ccc(F)c(S(=O)(=O)N3CCOCC3)c2)cc1	-3	3123	-1.6	-5	-3	-11	.
COc1ccc(N(CC(=O)N2CCOCC2)S(C)(=O)=O)cc1OC	11	3210	3.5	-59	-2	-2	-20
Continuation.
SMILES	ugtP null kill	Autofluor counter	Sa RN4220 lethal	PrP 5UTR inh	Mtb hypoxia inh	Mtb hypoxia inh growth	BJeLR lethal
COc1ccc(OCCn2cncn2)cc1	1	3544	14	-18	.	.	-1
Cc1ccc2nc(-c3ccc(NC(=O)CN(c4ccccc4C)S(C)(=O)=O)cc3)sc2c1	15	2949	-14	-45	.	.	-4
Nc1nnnn1/N=C\c1ccc(Cl)c([N+](=O)[O-])c1	.	3012	.	11	.	.	-11
Cc1oc2ccc(O)c(CN3CCOCC3)c2c1C(=O)c1ccc(Cl)cc1	-17	23586*	5.0	-50	1	-1	-4
O=C(NN=C1CCCC1)c1ccc(Br)cc1	9	3720	-1.5	-31	3	5	-13
O=C(NCc1cnc2ccccn12)C1CCC(=O)N(Cc2ccccc2F)C1 (stereo unspecified)	3	6155	2.4	-1	-6	9	-6
NNC(=O)c1cn2ccccc2n1	0	19411*	5.8	-31	6	10	-1
CC(C)CCc1noc(CN2CCC(CCN3CCCC3=O)CC2)n1	1	4316	0.6	-13	12	2	18
CCN1C(=O)C2C(c3ccc(-c4ccc(C(C)=O)cc4)c(OC)c3)N3CCC[C@@]3(C(=O)OC)C2C1=O (stereo partly specified)	-1	.	9.3	.	3	4	.
Cc1c(C(c2ccccc2)c2c(C)n(C)n(-c3ccccc3)c2=O)c(=O)n(-c2ccccc2)n1C	9	3314	2.8	-18	-3	6	-3
COc1ccc(NC(=O)COC(=O)CN2C(=O)NC(C)(C)C2=O)cc1	-3	4433	-1.3	-14	-1	5	.
O=C(/C=C/c1ccc(OC(F)F)cc1)OCC(=O)N1CCC(c2ccccc2)=N1	-2	9372	9.1	-23	8	3	.
Cc1nc(NC(=O)c2ccc(Br)o2)sc1C	1	3899	-0.6	-124	7	-2	5
NC(=S)NN=C1CCSc2ccc(Cl)cc21	0	.	4.2	.	.	.	.
COCCNC(=S)NN=Cc1ccc2c(c1)OCCO2	3	.	6.6	.	10	13	.
CC(C)NC(=O)c1noc2cc([N+](=O)[O-])ccc12	0	9065	12	-20	-1	14	0
NS(=O)(=O)c1ccc(CCNCC(=O)NCc2ccccc2Cl)cc1	3	4002	0.2	-3	-13	7	-10
C=C(C)Cn1c(SCC(=O)NN=Cc2cccc(O)c2)nc2ccccc2c1=O	11	.	0.2	.	7	4	.
CCCS(=O)(=O)N1CCC(C(=O)N2CCOCC2)CC1	4	2431	0.3	-9	2	11	-5
O=c1cc(NCC2CCCO2)[nH]c(=O)n1-c1ccc(Cl)cc1 (stereo unspecified)	7	8264	0.3	-13	-2	-3	-4

Another view of some results above:
CC(C)NC(=O)c1noc2cc([N+](=O)[O-])ccc12
  ugtP null kill: 0
  Autofluor counter: 9065
  Sa RN4220 lethal: 12
  PrP 5UTR inh: -20
  Mtb hypoxia inh: -1
  Mtb hypoxia inh growth: 14
  BJeLR lethal: 0

NS(=O)(=O)c1ccc(CCNCC(=O)NCc2ccccc2Cl)cc1
  ugtP null kill: 3
  Autofluor counter: 4002
  Sa RN4220 lethal: 0.2
  PrP 5UTR inh: -3
  Mtb hypoxia inh: -13
  Mtb hypoxia inh growth: 7
  BJeLR lethal: -10

C=C(C)Cn1c(SCC(=O)NN=Cc2cccc(O)c2)nc2ccccc2c1=O
  ugtP null kill: 11
  Autofluor counter: .
  Sa RN4220 lethal: 0.2
  PrP 5UTR inh: .
  Mtb hypoxia inh: 7
  Mtb hypoxia inh growth: 4
  BJeLR lethal: .

CCCS(=O)(=O)N1CCC(C(=O)N2CCOCC2)CC1
  ugtP null kill: 4
  Autofluor counter: 2431
  Sa RN4220 lethal: 0.3
  PrP 5UTR inh: -9
  Mtb hypoxia inh: 2
  Mtb hypoxia inh growth: 11
  BJeLR lethal: -5

New compounds follow:
SMILES	ugtP null kill	Autofluor counter	Sa RN4220 lethal	PrP 5UTR inh	Mtb hypoxia inh	Mtb hypoxia inh growth	BJeLR lethal
O=C(CC1SC(=O)N(c2ccccc2)C1=O)Nc1ccc(Cl)cc1 (stereo unspecified)	16	4107	9.8	-24	12	-1	-11
Cc1cccc(C)c1Nc1c(-c2ccc(N3CCOCC3)cc2)nc2cnccn12	6	4875	4.0	-13	1	-6	2
COC(=O)[C@]1(C)N[C@H](CN(C)C(=O)Nc2ccc(OC)cc2)[C@@H]2C(=O)N(C)C(=O)[C@@H]21	1	3714	2.4	-4	-6	3	.
Cc1c(C(=O)OC(C)C(C)C[N+](C)(C)C)oc2ccccc12 (stereo unspecified)	-7	3090	-15	-24	1	2	2
CCOc1cc(C(=O)OCC(=O)Nc2c(C)cccc2C)ccc1OCC(=O)N1CCOCC1	13	2499	1.3	-16	1	10	2
O=C(O)CSc1nc2ccccc2c(=O)[nH]1	-3	4554	2.4	-14	7	15	-5
CCCc1cc(-c2nc(N)ncc2-c2ccc3c(c2)OCCCO3)c(O)cc1OC	-21	3345	-16	3	1	8	-4
Clc1cccc(CSc2ccc(-c3ccco3)nn2)c1	7	3858	24	-24	0	-6	-18
Cc1ccccc1Cn1cc(NC(=O)c2cc3nc(-c4ccco4)cc(C(F)(F)F)n3n2)cn1	7	2908	7.1	-22	2	3	-2
Cc1ccccc1C(=O)Nc1nnc(-c2ccco2)o1	-6	4190	1.3	-28	-2	12	13
N#Cc1ccc(C(=O)Nc2nnc(-c3ccccn3)o2)cc1	-2	2058	9.0	10	2	6	-3
CCOc1ccc(NC(=O)CN(C)C(=O)c2cc([N+](=O)[O-])ccc2N2CCCCC2)cc1OCC	4	4652	2.4	-10	9	-1	2
COc1ccc(NS(=O)(=O)c2cc(NC(=O)/C=C/c3ccccc3OC)ccc2N2CCCCC2)cc1	-10	2068	8.6	-6	-5	1	-1
O=C(CSc1nnc(-c2cccs2)o1)NCC1CN(Cc2ccccc2)CCO1 (stereo unspecified)	-4	20699*	5.3	-37	8	20	-4
COC(=O)c1c(NC(=O)C(C)(C)C)sc2c1C(C(=O)OC)CC2 (stereo unspecified)	6	4736	0.0	-9	.	.	16
CC1CCCC(NC(=O)CN2CCN(S(=O)(=O)c3cccs3)CC2)C1C (stereo unspecified)	3	3574	-1.1	-24	6	-9	.
CC(=O)c1c(C)[nH]c(C(=O)Nc2nc(-c3ccc(Cl)cc3)cs2)c1C	90*	2582	71	-19	15	11	5
